GLA inh pH 4.5: qHTS Assay for Inhibitors of Human alpha-Galactosidase at pH 4.5; activity change, negative = inhibition, % at 105 µM; purified enzyme, 4-MU-alpha-Gal fluorescence, pH 4.5; 230,000 tested, under 10 active; inconclusive = small, poorly fitted or top-dose-only inhibition, or a rising curve; inactive = flat fitted curve, though single readings scatter; no compound was filed as active;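 note: 0% = full activity with enzyme and -100% = basal without enzyme; dose as in the result columns while the protocol names 77 µM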
Target sequence (P06280 whole entry, looked up): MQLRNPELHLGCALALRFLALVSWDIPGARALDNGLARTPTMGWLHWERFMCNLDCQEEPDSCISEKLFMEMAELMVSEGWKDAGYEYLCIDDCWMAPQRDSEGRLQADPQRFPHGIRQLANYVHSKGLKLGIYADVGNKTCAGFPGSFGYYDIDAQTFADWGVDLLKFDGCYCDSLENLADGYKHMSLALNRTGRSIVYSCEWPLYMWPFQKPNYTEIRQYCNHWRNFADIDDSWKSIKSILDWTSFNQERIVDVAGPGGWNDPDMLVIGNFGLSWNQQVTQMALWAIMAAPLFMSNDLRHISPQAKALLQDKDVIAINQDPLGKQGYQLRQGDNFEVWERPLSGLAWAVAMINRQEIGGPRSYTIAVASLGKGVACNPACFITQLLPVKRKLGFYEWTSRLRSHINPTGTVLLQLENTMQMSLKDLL
Rango-impB inh: qHTS Assay for Inhibitors of Rango (Ran-regulated importin-beta cargo) - Importin beta complex formation; Importin subunit beta-1 (Homo sapiens), Q14974; Rango CFP/YFP FRET sensor + importin beta, 45 min; Potency, µM (doses to about 92.2 µM), without a hit: top-dose inhibition of complex formation; 340,000 compounds, 0.031% hits; AID 540263, 2011; active = rising FRET ratio curve, often small or poorly fitted; inconclusive = mostly compound fluorescence or quenching in the first reads; inactive = flat curves in all reads;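 note: potency is the fitted concentration of half-maximal effect; 0% = DMSO wells and 100% = buffer wells lacking importin beta; nearly all actives have a fitted effect of over 15% in size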
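Inhibition scored from the CFP 486 nm/YFP 530 nm FRET ratio 45 min after adding 0.125 microM importin beta to 50 nM Rango biosensor preincubated 5 min with compound (room temperature, PBS with DTT, Tween-20, BSA). No-importin wells as positive control.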
Rango dissoc inh: qHTS Assay for Inhibitors of RanGTP induced Rango (Ran-regulated importin-beta cargo) - Importin beta complex dissociation; Potency, µM (highest dose often 46.1 µM), without a hit: at the highest dose activity change, negative = inhibition; 340,000 compounds, 0.071% hits; AID 540253, 2011; Biochemical FRET Rango-importin beta, RanGTP-induced dissociation; active means falling FRET ratio curve, often poorly fitted, with flat reads before Ran was added; inconclusive means other falling curves, or compound fluorescence or quenching; inactive means flat or rising ratio curve;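 note: potency is the fitted concentration of half-maximal effect; % of control where 0% means no effect; nearly all actives have a fitted effect of over 45% in size; -100% = wells without RanGTP and RCC1; the record marks most hits as doubtful in a second field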
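Recombinant Rango FRET biosensor (EYFP–snurportin 1 IBB–cerulean CFP10) at 0.1 uM premixed with 0.25 uM importin beta in PBS, 1 mM DTT, 0.02% Tween-20, 0.1% BSA. Compound added 5 min; RanGTP-RCC1 (0.6 uM Ran, 2 mM GTP, 0.2 uM RCC1) then triggers release, read at 45 min.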
miR-21 reporter: qHTS Assay for Modulators of miRNAs and/orActivators of miR-21; HeLa miR-21 FLuc reporter, luciferase, 48 h; Potency, µM (top dose mostly 38.3 µM), for inactives: top-dose reporter change, positive = more light; 340,000 tested, under 10 active; active = well fitted rising curve with a large enough effect; inconclusive = small, poorly fitted or top-dose-only effect; inactive = no such curve, though single readings can be large or run the other way;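 note: % of control where 0% means no effect; miR-21 action dims this reporter so a rising signal means less miR-21 action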
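Luminescence from a firefly luciferase reporter carrying a miR-21 binding site downstream, stably expressed under a CMV promoter in HeLa cells that make miR-21 endogenously, reports miRNA modulation after 48 h compound exposure up to approximately 40uM final.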
* = called active by the depositor; ? = inconclusive; . = not tested or not shown; & = joins results of further samples; [ ] = another dose, or the depositor's remark. Not all compounds are listed. The share of hits here may be higher or lower than overall.

SMILES | GLA inh pH 4.5 | Rango-impB inh | Rango dissoc inh | miR-21 reporter
CC(C)[C@@H](NC(=O)C1CCN(C(=O)[C@@H]2CCCN2C(=O)OC(C)(C)C)CC1)C(=O)NCc1ccc(F)cc1 | . | -1.3% | 7% | 0%
COc1ccccc1NS(=O)(=O)N(C)C | 5 | 1.1% | -1% | -1%
CCc1cccc(NC(=O)C2CCCN(S(=O)(=O)c3ccc4[nH]c(=O)ccc4c3)C2)c1 (centres undefined) | . | -3.2% | 10% | 0%
O=C(Nc1nc2ccc(S(=O)(=O)N3CCCCC3)cc2s1)c1ccncc1 | 15 | -4.5% | -13% | 2%
O=C(CSc1ccc2c(c1)OCCO2)NCc1ccco1 | -1 | ? | -16% | -3%
Cc1cccc(N2CCN(CC(=O)NCc3ccccc3)CC2)c1C | . | 0.7% | 1% | 0%
O=C(CN1CCc2ccccc2C1)Nc1ccccc1N1CCCCCC1 | -3 | -0.1% | 4% | 1%
N#CC(CCc1ccccc1[N+](=O)[O-])(CCc1ccccc1[N+](=O)[O-])C(N)=O | . | 0.1% | 1% | .
COc1ccc(S(=O)(=O)N2CCCCC2)cc1NC(=O)c1cnc(C)cn1 | . | ? | -18% | .
O=C(COC(=O)/C=C/c1ccccc1[N+](=O)[O-])Nc1ccc(OCc2ccccc2)cc1 | 0 | -0.3% | 1% | -30%
CC1=NN(c2ccc(C)c(C)c2)C(=O)C1C(c1cccc(O)c1)C1C(=O)N(c2ccc(C)c(C)c2)N=C1C (centres undefined) | -7 | 7.9% | -4% | -12%
COc1nc(C)ccc1-c1noc(-c2ccncc2)n1 | -5 | 2.1% | 1% | -43%
Nc1cc(SCc2ccc([N+](=O)[O-])cc2)ncn1 | . | 1.4% | 2% | .
CN(C)c1ccc(NC(=S)N2CCN(c3ncc(C(F)(F)F)cc3Cl)CC2)cc1 | 2 | -2.2% | 13% | 0%
COc1ccc(-c2nnc(SCc3cccc(C)c3)n2N)cc1 | 7 | 2.4% | -15% | -4%
Cc1ccccc1C(=O)N(C)c1ccccc1C(=O)NCc1ccccc1 | . | -0.8% | -12% | 3%
O=C(O)CS(=O)CC(=O)Nc1cccc(C(F)(F)F)c1 (centres undefined) | 1 | 3.2% | -5% | -1%
COc1cccc(/C=N/NC(=O)C[n+]2ccccc2)c1OC | 10 | -1.0% | 5% | -2%
CCOC(=O)c1c(C)oc2cc(Sc3ccccc3)c(O)c(O)c12 | . | 0.8% | 12% | .
O=C(COC(=O)/C=C/c1ccccc1)NCCc1ccc(F)cc1 | . | -2.7% | -3% | .
N=c1sc2ccccc2n1-c1ccccc1 | -2 | ? | ? | -12%
COC(=O)c1ccc(Cn2cc(C(F)(F)F)ccc2=O)cc1 | 4 | -1.3% | 4% | -3%
CC(C)=NOc1nc(N(C)C)nc(N(C)C)n1 | -1 | -0.4% | 9% | -1%
CCOc1ccc(-n2c(SCc3ccc([N+](=O)[O-])cc3)nnc2-c2ccccc2)cc1 | -1 | -1.1% | -20% | 17%
CN(C1CCCCC1)S(=O)(=O)c1ccc2c(c1)c(=O)c(C(=O)NCCN1CCCC1)cn2C | -11 | ? | -7% | -8%
Cc1c(C(=O)N2CCc3ccccc3C2)oc2ccccc12 | . | -1.4% | 15% | -50%
CC(=O)c1cc2c(cc1N(C(=O)c1ccco1)C(C(=O)NC1CCCC1)c1ccccc1F)OCO2 (centres undefined) | . | 1.7% | -9% | -7%
CC(=O)N1N=C(c2ccco2)CC1c1ccco1 (centres undefined) | . | 0.8% | 9% | -10%
COc1ccc(C(=O)N2CCC3(CC2)NCCc2[nH]cnc23)cc1OC | . | -2.2% | 24% | 0%
O=C(Nc1cccnc1)c1ccc([N+](=O)[O-])o1 | . | 2.2% | -2% | 10%
CC[C@@]1(C(=O)OC)N[C@H](CN(C)C(=O)Nc2ccc(OC)cc2)[C@@H]2C(=O)N(C)C(=O)[C@@H]21 | . | 0.6% | -13% | .
Cc1ccc(S(=O)(=O)CNC(=S)c2ccc3ccccc3c2)cc1 | -2 | 4.1% | 2% | -6%
CN(CC1CCCN(CCc2ccc(Cl)cc2)C1)C(=O)c1ccco1 (centres undefined) | . | 0.6% | 15% | .
Cc1cccc(NC(=S)N(CCN(C)C)Cc2cc3cc(C)cc(C)c3[nH]c2=O)c1 | -2 | 0.6% | 4% | -7%
Cc1c(NC(=S)NC(NC(=O)CC(C)C)C(Cl)(Cl)Cl)c(=O)n(-c2ccccc2)n1C (centres undefined) | 0 | -2.1% | -9% | -4%
Cc1ccc(C2C(=O)N(C3CCC(C)CC3)CC(=O)N2C2CC2)cc1 (centres undefined) | -3 | -3.2% | 4% | -7%
O=C(CSc1nnnn1-c1ccc2c(c1)OCCO2)N1CCN(C(=O)c2ccco2)CC1 | -2 | -7.9% | 30% | 2%
CN(CC(=O)O)S(=O)(=O)c1ccc(F)cc1 | -1 | -1.0% | 6% | -5%
O=C(c1cccs1)n1nc(-c2cccnc2)nc1NCc1ccco1 | -7 | 3.9% | -10% | -2%
CCN(CC)S(=O)(=O)c1cccc(-c2nnc(SC(C)C#N)n2Cc2ccccc2)c1 (centres undefined) | 0 | -0.4% | 53% | 1%
CC1(C)Oc2ccc(C(=O)N3CCc4ccccc43)cc2N(CC(=O)N2CCCC2)C1=O | 4 | 8.5% | 35% | -6%
Cc1nc2ccc(NC3=NCCCCC3)cc2s1 | 3 | 0.6% | -8% | 3%
Cc1noc2ncnc(N3CCCCC3)c12 | 1 | 1.5% | -19% | -6%
O=C(CCn1c(=O)oc2ccccc21)Nc1ccc2c(c1)OCCO2 | 4 | -0.8% | 0% | -50%
CCOC(=O)C1CCN(S(=O)(=O)c2ccc(Cl)cc2)CC1 | . | 0.0% | 3% | -4%
Cc1ccc(S(=O)(=O)c2nnn3c2nc(N2CCOCC2)c2ccccc23)cc1C | . | -0.3% | 4% | 0%
COc1ccc(C(=O)NNC(=O)c2ccc(F)c(S(=O)(=O)N3CCOCC3)c2)cc1 | . | 0.3% | -5% | .
O=C(COc1ccccc1)Nc1nnc(-c2ccccc2)o1 | 0 | ? | -5% | 0%
Cc1ccc(N(Cc2cc3ccccc3[nH]c2=O)S(C)(=O)=O)cc1 | -14[21.1 µM] | 2.3% | -7% | -1%
Cn1c2[n+](c3ccc(Cl)cc3c1=O)Cc1ccccc1-2 | -13 | 6.7% | -12% | -2%
O=C(/C=C/c1ccc([N+](=O)[O-])cc1)NCCc1ccccc1 | 6 | -0.7% | 12% | -19%
COC(=O)C1CCN(C(=O)COC(=O)CC(NC(C)=O)c2ccccc2)CC1 (centres undefined) | 4 | 0.8% | -12% | -1%
CC(C)CN(C(=O)CN1CCN(c2cccc(Cl)c2)CC1)c1c(N)n(CC(C)C)c(=O)[nH]c1=O | -7 | -0.2% | -2% | -2%
Cc1ccccc1CNC(=O)C1CCC(=O)N(CC2CCCCC2)C1 (centres undefined) | . | -2.9% | 0% | 4%
O=C(CN1C(=O)c2ccccc2C1=O)N1CCN(c2ccccc2)CC1 | 1 | -1.7% | 1% | -2%
C(=N\n1cnnc1)/c1ccc(N2CCOCC2)s1 | -9 | ? | ? | -8%
CC1Cc2ccccc2N1C1=CC(=O)CCC1 (centres undefined) | 7 | 1.2% | -3% | 22%
CCC(C)c1ccccc1NC(=O)Cc1coc2cc3c(cc12)CCC3 (centres undefined) | -2 | 1.6% | -12% | 17%
CCOC(=O)CSc1ccccn1 | -15 | -2.3% | -6% | -4%
N#C/C(=C/c1ccc(-c2ccc(S(N)(=O)=O)cc2)o1)c1nc2ccccc2s1 | -4 | ? | ? | -6%

(next part)
SMILES | GLA inh pH 4.5 | Rango-impB inh | Rango dissoc inh | miR-21 reporter
COCCCN(Cc1ccco1)C(=O)CSc1nc2ncccc2[nH]1 | . | 4.9% | -3% | 0%
COCc1nc(-c2ccc(-c3ccc(OC)cc3)nc2OC)no1 | -16 | ? | -24% | -56%
Nc1ncc(S(=O)(=O)c2ccc([N+](=O)[O-])cc2)s1 | . | -2.6% | 12% | .
CN1C(=O)Cc2cc(S(=O)(=O)NCCc3ccc(Cl)cc3)ccc21 | . | -0.6% | -8% | 1%&-9%
COCCOC(=O)c1nccnc1C(=O)Nc1ccc(S(=O)(=O)N2CCOCC2)cc1 | 0 | -4.8% | 38% | -6%
Cc1ccc(-n2c(C)cc(/C=N/NC(=O)c3ccc(CN4CCOCC4)cc3)c2C)cc1 | -6 | -0.8% | ? | 5%
COc1ccc(-c2cn(-c3ccccc3)c3[n+]2CCS3)cc1 | 0&-4 | -1.6%&2.4% | -4%&-7% | ?
CC(=O)c1sc(NC(=O)C2CC(=O)N(Cc3ccccc3)C2)nc1-c1ccccc1 (centres undefined) | . | 0.7% | 0% | .
COc1ccc(Cn2c(CCC(=O)Nc3ccccc3)nc3cccnc32)cc1 | 9 | -1.7% | -13% | -16%
CCOc1ccc(-n2c(Cc3cc(=O)[nH]c(=O)[nH]3)nnc2SC(C)C)cc1 | 4 | 1.1% | 12% | -3%
CSc1nc(-c2ccccc2)nn1C(=O)c1ccc(C)cc1 | 0 | 0.9% | 9% | -19%
CCOC(=O)CCC(=O)NCc1ccc2[nH]c(C)cc2c1 | -1 | -6.8% | -21% | -11%
O=C1C2CCCN2C(c2cccs2)N1c1ccc(F)cc1 (centres undefined) | -3[21.1 µM] | 2.2% | -8% | -2%
CC(NC(=O)COC(=O)C1CC2CCCC(C1)C2=O)c1ccccc1 (centres undefined) | . | 4.3% | -4% | .
CN(CCCN1CCCCC1)C(=O)CCc1nnc(C2CCCCC2)o1 | 2 | -3.3% | 1% | -3%
COc1ccc(CCN(Cc2cc3ccc(C)cc3[nH]c2=O)C(C)=O)cc1OC | 8 | 0.0% | -1% | -4%
O=C(CN(Cc1ccccc1F)C(=O)c1csnn1)NCc1ccc2c(c1)OCO2 | . | 2.4% | -18% | 3%
CCn1cc(C(=O)O)c(=O)c2cc(F)c(N3CCN(C(=S)NC(=O)c4cc(OC)cc(OC)c4)CC3)cc21 | . | 2.4% | -13% | -1%
COc1ccc(C(=O)Nn2c(C)nc3ccccc3c2=O)cc1Br | . | ? | -7% | 6%
Cc1nnc(SCC(=O)NCc2ccc3c(c2)OCO3)s1 | -1 | 6.2% | 2% | -1%

Part of the list above, with tabs.
SMILES	GLA inh pH 4.5	Rango-impB inh	Rango dissoc inh	miR-21 reporter
Nc1ncc(S(=O)(=O)c2ccc([N+](=O)[O-])cc2)s1	.	-2.6%	12%	.
CN1C(=O)Cc2cc(S(=O)(=O)NCCc3ccc(Cl)cc3)ccc21	.	-0.6%	-8%	1%&-9%

(further entries)
SMILES | GLA inh pH 4.5 | Rango-impB inh | Rango dissoc inh | miR-21 reporter
Cn1c2ccccc2c2nnc(SCC(=O)Nc3ccccc3F)nc21 | . | 0.5% | -4% | 0%
COc1cc(/C=C2/C(=O)N(C)C(=S)N2C)ccc1OCc1cccc(F)c1 | . | -1.0% | ? | 2%
CC(C)c1ccc(NC(=O)CCNS(=O)(=O)c2cccc3nonc23)cc1 | 1 | 1.6% | 4% | -5%
O=C1/C(=C\c2cccnc2)Sc2ccccc21 | -1 | ? | ? | -9%
Cc1ccc(OCC(=O)NC(=S)Nc2ccc(Br)cn2)cc1 | 2 | -5.6% | -9% | -3%
COc1ccc(C(C)NC(=O)Cc2ccc(Br)cc2)cc1 (centres undefined) | -25 | 0.1% | -5% | -7%
Cc1cc(Cl)c2oc(C(=O)N(C)C(C)c3ccccn3)c(C)c2c1 (centres undefined) | . | -2.2% | 6% | -68%
CC(=O)Nc1ccc(NC(=S)Nc2ccccc2)cc1 | 9 | 1.1% | -11% | -5%
CC(C)[C@H](N)C(=O)N1CCC(C(=O)N[C@@H](Cc2ccccc2)C(=O)NCc2ccc(F)cc2)CC1 | . | 1.5% | 16% | -1%

Screening results deposited in PubChem by National Center for Advancing Translational Sciences (NCATS).
